Screening results deposited in PubChem by several laboratories.
Insulin prom inh – TRM-6 insulin promoter activity inhibition. TRM-6 cells (human fetal islet line), insulin promoter-eGFP reporter, imaging; reporter expression induced with tamoxifen. inhibition, % at 2 µM. hit rate 0.9% among 130,000;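 active = inhibition above the mean plus 3 SD, with well images judged a real hit on visual review, cut at about 60% in these data, passing the limit was not always enough; inconclusive = inhibition over the cutoff but images rejected on review; inactive = inhibition not above the cutoff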
HSV replic up – HSV replication enhancement. maximum fold increase. AID 1956. hit rate 0.005% among 220,000. HSV replication augmentation in cells, fold increase;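 active = peak rise of 1.5-fold or more in the series; inconclusive = self-fluorescent or not available for retest; tested in PC3 cells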;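 also: first round at 10 µM; read as green reporter fluorescence; hits show the peak of a series up to 25 µM; 1 = signal of infected wells without compound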
RGS16-Gao HTS – RGS16-Galphao interaction regulator (human). O15492+P09471. bead-based flow cytometry RGS16-Galphao binding, fluorescence; actives lie on both sides. binding response (% of control), % at 10 µM. hit rate 0.38% among 220,000;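 active = below 25% or above 175%, edge rows of some plates excepted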;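 also: Galphao activated by GDP with aluminum fluoride before binding; 100% = wells without compound and 0% = beads without RGS; some results beyond the cut were filed as inactive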
Target sequence (O15492 whole entry, looked up): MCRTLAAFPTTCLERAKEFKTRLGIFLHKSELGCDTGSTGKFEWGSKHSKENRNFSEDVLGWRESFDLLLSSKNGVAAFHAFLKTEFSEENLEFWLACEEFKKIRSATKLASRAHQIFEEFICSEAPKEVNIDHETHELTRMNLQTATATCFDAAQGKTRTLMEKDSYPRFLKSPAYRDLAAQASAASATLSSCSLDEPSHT
Target sequence (P09471 whole entry, looked up): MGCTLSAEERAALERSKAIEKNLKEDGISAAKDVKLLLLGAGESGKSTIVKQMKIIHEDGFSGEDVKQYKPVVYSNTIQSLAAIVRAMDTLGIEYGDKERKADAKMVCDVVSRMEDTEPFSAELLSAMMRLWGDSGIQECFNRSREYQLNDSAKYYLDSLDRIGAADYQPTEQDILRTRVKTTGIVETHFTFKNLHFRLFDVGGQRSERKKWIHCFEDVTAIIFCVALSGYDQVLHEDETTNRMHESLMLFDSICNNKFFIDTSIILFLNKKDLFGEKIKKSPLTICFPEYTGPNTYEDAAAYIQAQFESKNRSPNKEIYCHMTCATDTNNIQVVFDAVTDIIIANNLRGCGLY
GALR2 ag – agonists of human galanin receptor 2 (GALR2). GALR2-expressing cells, agonist activation read-out. O43603. activation, %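 (tested at 5 µM)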. hit rate 0.48% among 140,000. AID 803;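 active = above mean plus 3 SD of all compounds, about 5% in these data, not always enough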;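 also: 0% = vehicle buffer wells and 100% = reference agonist at full effect; tested in CHO reporter cells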
Target sequence (O43603 whole entry, looked up): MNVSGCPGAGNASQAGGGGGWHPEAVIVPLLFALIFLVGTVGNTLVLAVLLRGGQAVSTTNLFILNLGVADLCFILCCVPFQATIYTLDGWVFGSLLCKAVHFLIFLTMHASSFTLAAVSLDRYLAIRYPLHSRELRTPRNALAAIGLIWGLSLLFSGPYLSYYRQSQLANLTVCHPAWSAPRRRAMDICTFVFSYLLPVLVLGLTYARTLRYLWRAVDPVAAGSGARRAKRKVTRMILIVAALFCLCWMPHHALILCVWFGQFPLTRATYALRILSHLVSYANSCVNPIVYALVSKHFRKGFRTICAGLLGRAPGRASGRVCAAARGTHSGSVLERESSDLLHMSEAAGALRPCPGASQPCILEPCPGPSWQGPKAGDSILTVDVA
PKD1 kinase inh – inhibitors of human PKD1 kinase; AID 797; PKD1 kinase fluorescence polarization assay; inhibition, %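 (about 10 µM by stock and volumes)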; hit rate 0.056% among 200,000;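 active = inhibition of 50% or more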;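 also: controls were vehicle for no effect and a reference inhibitor for full effect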
Insulin prom inh cell count – second read-out of Insulin prom inh, no call of its own (marks repeat the call); normalized cell count, %; measured here: cell count, toxicity; reference of the scale not given here;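 cells exposed to compound for 48 h; stained nuclei by imaging scaled within each plate; lower means fewer cells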
HSV replic up primary fold – further read-out of HSV replic up, marked with its call; fold increase; compound at 10 µM; measured here: primary screen fold increase 10 uM; tested in PC3 cells;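 GFP signal in the first replicate; 1 = infected wells without compound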
* = called active by the depositor; i = inactive; ? = inconclusive; · = not tested or not shown.

SMILES	Insulin prom inh	Insulin prom inh cell count	HSV replic up	HSV replic up primary fold	RGS16-Gao HTS	GALR2 ag	PKD1 kinase inh
CCSc1ncc(Cl)c(C(=O)N(Cc2ccc(N(C)C)cc2)C2CCS(=O)(=O)C2)n1 (centres undefined)	-21	173	i	1	97	0.0	-4
O=C(COc1ccccc1-c1ccccc1)NN=C1CCCC1	·	·	i	0.74	96	·	0
Cc1ccc(C(CC(=O)O)Nc2nc(N3CCCCC3)nc(N3CCCCC3)n2)cc1 (centres undefined)	·	·	i	0.93	102	-0.5	-8
CCOc1ccc(C(=O)CSc2nnc3ccccn23)cc1	-26	86	i	1	105	-2.2	0
CNC(=S)N1N=C(c2ccc(Br)cc2)CC1c1ccc(Br)cc1 (centres undefined)	·	·	i	1	93	-2.1	-5
CCN(CC)C(=S)SC1CCCCN(C(=O)c2ccccc2)C1=O (centres undefined)	·	·	i	0.94	103	·	·
COc1ccc(NCC(=O)n2c(C)c(C)c3ccccc32)cc1	-9	86	i	0.64	107	·	0
CCN(CC)S(=O)(=O)c1ccc(-c2nnc(SCC(C)=O)o2)cc1	-58	119	i	0.84	103	10	-7
CCC(C)NC(=O)COC(=O)c1ccccc1OCC(=O)Nc1ccc(Br)cc1 (centres undefined)	-6	106	i	0.96	89	0.5	-2
O=C1c2ccccc2C(=O)N1CCc1nn[nH]n1	-60	114	i	1.2	99	-0.7	5
Cc1c(CN(C)Cc2cn(C)nc2-c2ccccc2F)[nH]c2ccccc12	·	·	i	0.93	104	·	2
O=C(NC1(C(F)(F)F)NC(=O)N(c2ccccc2F)C1=O)c1ccncc1 (centres undefined)	-64	85	i	1.1	108	-1.6	6
COc1ccc(-c2n[nH]c(C)c2-c2cc(OC)ccc2O)cc1	-11	79	i	0.94	106	8.6	-6
Cc1ccc(NC(=O)COC(=O)c2ccc3c(c2)OCO3)cc1S(=O)(=O)N1CCCCC1	-12	109	i	1	109	-0.3	-10
CC(C)C(OC(=O)c1oc2ccccc2c1CSC1CCCCC1)C(=O)NC(N)=O (centres undefined)	20	113	i	0.83	96	·	-1
O=C(O)Cc1ccc(NC(=O)C(c2ccccc2)c2ccccc2)cc1	·	·	i	0.93	109	·	-3
COc1ccc(-c2noc(-c3ccc(Br)o3)n2)cc1OC	-122	126	i	0.68	103	-1.2	-5
COc1ccc(Cl)cc1NC(=O)NC(C)C	·	·	i	1.1	104	·	-2
CC(c1ccccc1)N1CNc2c(c(=O)n(C)c(=O)n2C)C1 (centres undefined)	-17	107	i	0.94	103	0.1	-4
C=CCn1c(=O)c2ccccc2n2c(SCc3cc(=O)n4ccsc4n3)nnc12	-71	173	i	0.73	95	-0.3	1
COc1ccc(C(=O)N(CN2CCCC2=O)c2nccs2)cc1OC	·	·	i	0.78	99	-1.1	1
OC(COc1cccc2ccccc12)CN1CCN(c2ccccn2)CC1 (centres undefined)	4	95	i	0.59	108	15*	1
O=C(N/N=C1/CCS(=O)(=O)c2ccc(F)cc21)c1ccccn1	·	·	i	1.1	103	·	5
CCNC(=O)COC(=O)c1ccc(NS(=O)(=O)c2ccc3c(c2)OCCO3)cc1	43	76	i	0.99	102	·	0

An excerpt from above in order of their number in HSV replic up primary fold, falling.
SMILES,HSV replic up,HSV replic up primary fold,RGS16-Gao HTS,GALR2 ag,PKD1 kinase inh
COc1ccc(-c2n[nH]c(C)c2-c2cc(OC)ccc2O)cc1,i,0.94,106,8.6,-6
CC(C)C(OC(=O)c1oc2ccccc2c1CSC1CCCCC1)C(=O)NC(N)=O (centres undefined),i,0.83,96,·,-1
COc1ccc(-c2noc(-c3ccc(Br)o3)n2)cc1OC,i,0.68,103,-1.2,-5

The list continues:
SMILES	Insulin prom inh	Insulin prom inh cell count	HSV replic up	HSV replic up primary fold	RGS16-Gao HTS	GALR2 ag	PKD1 kinase inh
Cc1noc(C)c1S(=O)(=O)Nc1c(C)n(C)n(-c2ccccc2)c1=O	-48	111	i	1	101	-0.8	-6
Oc1ccc(C(=S)N2CCN(Cc3ccccc3)CC2)cc1	·	·	i	0.84	97	·	·
COc1ccc(OC)c(C2=C[N+](=O)C(C)(C)C(C)(C)N2[O-])c1	-195	28	i	0.97	103	-2.8	-1
CCOc1nc(Nc2ccc(F)cc2)nc(N2CCN(c3ccc(OC)cc3)CC2)n1	-3	67	i	0.94	96	-2.3	-4
O=c1[nH]c2ccc(N/C(=N/S(=O)(=O)c3ccccc3)c3ccccc3)cc2[nH]1	·	·	i	0.91	92	-1.8	1
O=c1[nH]c(N2CCN(Cc3ccc4c(c3)OCO4)CC2)nc2c1CCCC2	·	·	i	0.81	101	·	-4
Cc1ccc(Cn2ccc(NC(=O)c3cc(-c4ccc(F)cc4)on3)n2)cc1	·	·	i	1	102	-2.8	-7
O=C(CN1CCN(c2ccccc2)CC1)Nc1ccc(Oc2ccccc2)cc1	43	106	i	0.93	97	-0.2	0
CN1CCc2nc(SCC(=O)Nc3ccc(Cl)cc3)c(C#N)cc2C1	36	94	i	0.95	152	-3.4	-5
CCNc1nc(Oc2ccc(=O)n(-c3ccccc3)n2)nc(N2CCOCC2)n1	57	170	i	0.88	109	-4.1	-10
O=C(NC(Cc1c[nH]c2ccccc12)C(=O)Nc1ccc(OC(F)(F)F)cc1)c1cccs1 (centres undefined)	35	57	i	1	106	1.1	-5
NC(=O)COC(=O)CCCSc1nc2ccccc2s1	·	·	i	0.95	103	·	-4
CN(Cc1ccco1)C(=O)c1c[nH]c2ccc(S(=O)(=O)Nc3ccc4c(c3)OCCO4)cc2c1=O	22	116	i	1	48	-1.9	3
Cc1ccc(-c2nnn(CC(=O)N(Cc3ccccc3)C(C(=O)NC3CCCC3)c3ccncc3)n2)o1 (centres undefined)	-15	110	i	0.85	101	0.9	-1
CCCCNC(=O)CSc1nc(O)c(Cc2ccc(OC)cc2)c(=O)[nH]1	·	·	i	1	103	·	·
CCOC(=O)Cc1csc(NC(=O)Cn2c(=O)oc3ccccc32)n1	·	·	i	1.1	98	·	·
CC12CN3CC(C)(CN(C1)C3c1ccc3ccccc3c1O)C2=O (centres undefined)	-42	92	i	0.99	122	-1.1	-3
Cn1cnnc1SCC(=O)NNC(=O)c1ccc(Cl)cc1	45	132	i	1.1	119	-0.9	6
CCCSc1nc2sc3c(c2c(=O)[nH]1)CCN(Cc1ccccc1)C3	6	55	?	·	128	-0.3	3
COc1ccc(/C=N/NC(=O)C(=O)NCC2CCCO2)cc1 (centres undefined)	36	132	i	0.91	101	-0.6	-8
COc1ccc(C)cc1NC(=O)NNC(=O)C1CCC(C(C)(C)C)CC1 (centres undefined)	·	·	i	0.91	101	·	-4
N/C(=N\NS(=O)(=O)c1cc(C(F)(F)F)cc(C(F)(F)F)c1)c1ccccn1	·	·	i	1	99	·	·
O=c1cc(C(F)(F)F)[nH]c2ccccc12	·	·	i	0.91	105	·	·
COCC(=O)Nc1nnc(C2CCCCC2)s1	-32	103	i	0.83	135	-4.8	-6

A few values from the entries so far:
`Oc1ccc(C(=S)N2CCN(Cc3ccccc3)CC2)cc1` – HSV replic up primary fold: 0.84
`CNC(=S)N1N=C(c2ccc(Br)cc2)CC1c1ccc(Br)cc1` (centres undefined) – RGS16-Gao HTS: 93
`NC(=O)COC(=O)CCCSc1nc2ccccc2s1` – RGS16-Gao HTS: 103

Ordered by molecular weight (low to high): 3 of the compounds above.
SMILES	Insulin prom inh	Insulin prom inh cell count	HSV replic up	HSV replic up primary fold	RGS16-Gao HTS	GALR2 ag	PKD1 kinase inh
COCC(=O)Nc1nnc(C2CCCCC2)s1	-32	103	i	0.83	135	-4.8	-6
CCOC(=O)Cc1csc(NC(=O)Cn2c(=O)oc3ccccc32)n1	·	·	i	1.1	98	·	·
CCCSc1nc2sc3c(c2c(=O)[nH]1)CCN(Cc1ccccc1)C3	6	55	?	·	128	-0.3	3

Additional results follow.
SMILES	Insulin prom inh	Insulin prom inh cell count	HSV replic up	HSV replic up primary fold	RGS16-Gao HTS	GALR2 ag	PKD1 kinase inh
Cc1ccc(N=Nc2c(C)[nH][nH]c2=O)c(C)c1	73*	110*	i	0.78	103	-2.6	1
CCO[C@H]1OC(C(N)=O)=C[C@@H](c2csc3ccccc23)[C@@H]1CCCO	·	·	i	0.85	97	·	3
CNc1nc(Cl)c(SC)c(NC2CCCCC2)n1	·	·	i	1.1	99	·	-2
Cc1ccc(C(=O)OCC(=O)Nc2cccc(Cl)c2C)c(O)c1	·	·	i	0.88	98	·	·
CN(C)S(=O)(=O)c1cc([N+](=O)[O-])ccc1N1CCCCCC1	7	143	i	1	104	0.9	11
CC(=O)Nc1sc2c(c1C(N)=O)CCN(Cc1ccccc1)C2	·	·	i	0.7	100	·	·
CC(C)(C)c1ccc(C(=O)NC(=S)Nc2sc3c(c2C#N)CCC3)cc1	47	135	i	1	89	-2.1	-1
COc1ccc(NS(=O)(=O)c2ccc(NC(=S)NC(=O)/C=C/c3ccc(C)cc3)cc2)nn1	35	120	i	0.76	105	-0.7	-9
Cc1c(NC(=O)CCCOc2ccccc2)cccc1[N+](=O)[O-]	-38	76	i	0.98	100	-0.3	-11
O=C(NCCCc1nc2ccccc2[nH]1)c1cccs1	·	·	i	0.96	102	·	2
Cc1nc(N2CCOCC2)c2oc3ccccc3c2n1	·	·	i	0.63	87	1.9	2
Cc1ccc(NC(=O)c2ccc(Cl)cc2[N+](=O)[O-])nc1	·	·	i	0.93	97	·	2
CN1CCN(C(=O)C2C3C=CC(C3)C2C(=O)O)CC1 (centres undefined)	10	86	i	0.88	102	-2.3	0
O=c1cc(CSc2nnnn2-c2ccccc2)nc(Nc2ccc(F)cc2)[nH]1	·	·	i	0.94	101	0.7	-3
O=C1/C(=N\S(=O)(=O)c2cccs2)C([n+]2ccccc2)=C([O-])c2ccccc21	·	·	i	0.55	102	·	·
Cc1[nH]c2ccccc2c1/C=N/Nc1ccc(F)cc1F	-13	61	i	1.1	103	-1.6	-14
COCCN(Cc1ccccc1)P(=O)(O)c1ccccc1OCC(=O)O	24	141	i	0.87	107	-3.5	-5
Cc1cccc(N(C2C=CS(=O)(=O)C2)S(=O)(=O)c2ccccc2)c1 (centres undefined)	-406	60	i	0.65	100	-2.2	-5
Fc1ccccc1C1CCN(Cc2nc(CC3CC3)no2)C1 (centres undefined)	·	·	i	1	99	·	-1
O=C(c1ccccc1)c1nn(-c2cccc(Cl)c2)c2nc(-c3ccccc3)cc(=O)n12	·	·	·	·	107	-3.2	-12
CCc1ccc(O)c(N=Cc2ccccc2O)c1	40	67	i	0.91	87	-1.2	-15
CCn1c(SCC(=O)c2ccccc2)nnc1-c1cc2cc(Br)ccc2o1	47	112	i	0.88	104	-2.6	-11
CC(=O)NC(Cc1c[nH]c2ccccc12)C(=O)OCC(=O)Nc1ccc2c(c1)OCO2 (centres undefined)	·	·	i	0.87	102	-1.5	-7
CCOc1ccc(NS(=O)(=O)c2ccc(SC)cc2)cc1	3	137	i	1.1	100	-0.8	10
COc1ccc(N(C(C)C(=O)N2CCC(Cc3ccccc3)CC2)S(C)(=O)=O)cc1 (centres undefined)	·	·	i	0.99	107	·	-9
Cc1ccc(SCc2cc(=O)[nH]c(N3CCN(Cc4ccc5c(c4)OCO5)CC3)n2)cc1	-45	96	i	0.82	99	-2.6	1
Cn1cc(Br)c(C(=O)Nc2nccs2)n1	-8	72	·	·	100	-0.8	-20
CC(=O)c1ccc(-n2nnnc2SCC(=O)NNC(=O)c2ccco2)cc1	3	94	i	0.77	108	-1.8	-11
Cc1c(NC(=O)N2CCCCCC2)c(=O)n(-c2ccccc2)n1C	57	158	i	0.96	104	-1.8	2
CCn1c(C)nc2cc(C(=O)N/N=C/c3ccc(N4CCOCC4)cc3)ccc21	·	·	i	0.99	98	·	-3
C=CCn1c(SCC(=O)N(C)C2CCS(=O)(=O)C2)nc2ccccc2c1=O (centres undefined)	·	·	i	1.1	105	·	-3
Cc1cc(C)c(NC(=O)c2cc3c(nc4sccn43)s2)c(C)c1	9	171	i	0.95	98	-1.6	-1
CC1CC(C)CN(C(=O)CSc2nnc(CSc3ncccn3)n2C)C1 (centres undefined)	0	212	i	0.84	101	-0.9	-3
Cc1ccc2nc(NC(=O)CN3CCOCC3)sc2c1	-18	115	i	0.9	121	-2.0	-6
Cc1nn(C(C)C(=O)NNC(=S)Nc2ccc(F)cc2)c(C)c1[N+](=O)[O-] (centres undefined)	14	77	i	1.3	101	-1.1	-2
Cn1c(C(=O)N2CCCC(C(=O)NCCc3ccccc3)C2)cc2sccc21 (centres undefined)	-40	84	i	0.68	114	-0.9	0
CCCCS(=O)c1c(O)c2ccccc2[nH]c1=O (centres undefined)	8	154	i	0.92	101	-1.0	-10
COc1ccccc1-c1nc(-c2ccc(Br)o2)no1	·	·	i	0.87	103	-3.5	-7
O=C(/C=C/c1ccco1)Nc1cccnc1	·	·	i	1.1	90	·	-5
Cc1nnc(SC(C)C)n(N)c1=O	10	136	i	0.97	109	·	6
